Assay outcomes: PubChem, Broad Institute
FGF22 binding: binders of human FGF22 protein, primary screen, FGF22 synaptogenesis inhibitor project, biophysical, thermal shift, single point | Fibroblast growth factor 22 (Homo sapiens), Q9HCT0 | recombinant FGF22 thermal shift, SYPRO orange fluorescence; percent of sucrose octasulfate shift, DMSO zero | calls only at 9.99 µM | 340,000 tested, 1.5% active | AID 651658, 2012;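 active means melting point raised past a set limit in the mean and every replicate; three in four hits are not shown here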
Target sequence (Q9HCT0 whole entry, looked up): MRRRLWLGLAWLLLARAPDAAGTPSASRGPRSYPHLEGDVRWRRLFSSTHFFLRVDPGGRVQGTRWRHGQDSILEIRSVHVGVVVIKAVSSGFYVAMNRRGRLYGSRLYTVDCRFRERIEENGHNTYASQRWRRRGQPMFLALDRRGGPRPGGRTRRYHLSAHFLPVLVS
rRNA inh HTS: reduced GFP signal of wild-type E. coli, primary screen, bacterial rRNA inhibitor project, GFP/RFP fluorescence, OD600, single point; E. coli WT GFP vs humanized-ribosome RFP mutants, 24 h; active compounds read low; DMSO median 0, no signal -100; GFP signal change (wild-type ribosome), % (no concentration beside the values); 350,000 tested, 1.6% active;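 active means significant combined selectivity score with lowered wild-type GFP, culture density cut under 30%, mutant RFP and density less affected; inactive means any of these conditions unmet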; further: one replicate is shown; some compounds called inactive have numbers as strong as hits
rRNA inh HTS OD600: also measured in rRNA inh HTS; calls as there; OD600 change, %; measured here: OD600 growth;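 optical density of the mix in the first replicate; 0 = DMSO median and -100 = no signal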
rRNA inh HTS RFP: also measured in rRNA inh HTS; calls as there; RFP signal change, %; measured here: RFP humanized mutant strains;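 first replicate; 0 = DMSO median and -100 = no signal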
Numbers without * were called inactive; i = inactive; + = active, no number. Some of the compounds tested, so the mix of outcomes need not match the whole.

item	SMILES	rRNA inh HTS	rRNA inh HTS OD600	FGF22 binding	rRNA inh HTS RFP
1	CC(C)NC(=O)Nc1ccc2c(c1)CC(=O)N([C@H](C)CO)C[C@H](C)[C@@H](CN(C)C(=O)Nc1cccc3ccccc13)O2	0	1	i	2.2
2	C[C@H](CO)N1C[C@H](C)[C@@H](CN(C)S(=O)(=O)c2ccccc2)OCCCC[C@H](C)Oc2ccc(NS(C)(=O)=O)cc2C1=O	-5	-4	i	-0.6
3	Cc1noc(C)c1S(=O)(=O)N(C)C[C@@H]1Oc2ccc(NC(=O)Cn3cnnn3)cc2CC(=O)N([C@@H](C)CO)C[C@@H]1C	4	4	i	-0.3
4	CN(C)C(=O)C[C@@H]1CC[C@H]2[C@H](COc3ccc(NC(=O)NCc4ccccc4)cc3C(=O)N2C)O1	1	-4	i	-2.1
5	CC=Cc1ccc2n(c1=O)C[C@H]1[C@H](CO)[C@@H](C(=O)N[C@@H](C)c3ccccc3)[C@@H]2N1Cc1ccncc1 (mixture of isomers)	-1	7	+	-3.8
6	COc1ccc(S(=O)(=O)Nc2ccc3c(c2)CC(=O)N([C@H](C)CO)C[C@@H](C)[C@H](CN(C)Cc2ccc(C(F)(F)F)cc2)O3)cc1	-1	4	i	7.1
7	C[C@H](CO)N1C[C@H](C)[C@H](CN(C)S(=O)(=O)c2cccs2)OCc2ccccc2-c2ccccc2C1=O	0	2	i	-1.0
8	Cc1noc(C)c1NC(=O)Nc1ccc2c(c1)C(=O)N(C)[C@H]1CC[C@@H](CC(=O)N[C@H]3CCN(Cc4ccccc4)C3)O[C@@H]1CO2	4	10	i	0.1
9	COc1cccc(-c2cnc3c(c2)C(=O)N([C@@H](C)CO)C[C@H](C)[C@@H](CN(C)C(=O)CN(C)C)O3)c1	1	9	i	-0.4
10	CO[C@H]1CN(C)C(=O)c2ccc(NS(=O)(=O)c3ccccc3)cc2OC[C@@H](C)NC[C@@H]1C	-1	7	i	-2.7
11	CCC(=O)Nc1ccc2c(c1)OC[C@@H](C)N(C(C)=O)C[C@H](C)[C@H](OC)CN(C)C2=O	1	1	i	-1.2
12	C[C@@H]1CN([C@@H](C)CO)C(=O)c2cc(NC(=O)c3ccncc3)ccc2O[C@H]1CN(C)Cc1ccncc1	2	7	i	-1.3
13	O=C(Nc1ccc2c(c1)OCO2)N[C@H]1CC[C@@H](CCNC(=O)C2CC2)O[C@H]1CO	1	3	i	-4.4
14	O=C(Nc1ccccc1)N1CCCCN2[C@@H](CO)[C@H](c3ccc(C4=CCCCC4)cc3)[C@@H]2C1	-59	-72	i	-12
15	COc1ccccc1-c1cnc2c(c1)C(=O)N([C@H](C)CO)C[C@H](C)[C@H](CN(C)C(=O)CC1CC1)O2	-2	10	i	-0.4
16	CCC(=O)N(C)C[C@H]1Oc2cc(C#CC3CCCC3)ccc2S(=O)(=O)N([C@H](C)CO)C[C@@H]1C	-6	-33	i	0.7
17	Cc1noc(C)c1NC(=O)N(C)C[C@H]1Oc2ccc(NC(=O)CCCCCC(=O)Nc3ccccc3N)cc2CC(=O)N([C@@H](C)CO)C[C@@H]1C	3	4	i	1.7
18	C[C@@H]1CN([C@H](C)CO)C(=O)c2cc(NC(=O)Nc3cccc4ccccc34)ccc2O[C@@H](C)CCCCO[C@H]1CN(C)S(=O)(=O)c1ccccc1	-1	-16	i	-0.9
19	O=C(NCc1ccccc1)[C@H]1CCCN1C(=O)[C@H]1CCCN1C(=O)c1ccc(OC(F)(F)F)cc1	10	7	i	-1.8
20	Cc1ccc(S(=O)(=O)Nc2cccc3c2O[C@@H](CN(C)CC2CCCCC2)[C@@H](C)CN([C@H](C)CO)C3=O)cc1	4	1	i	1.4
21	C[C@@H]1CN([C@@H](C)CO)C(=O)c2cccc(NC(=O)Nc3ccccc3)c2O[C@@H]1CN(C)C(=O)Nc1ccccc1	0	-5	i	-1.6
22	CN1C(=O)c2cc(NC(=O)c3cccc(F)c3)ccc2OC[C@@H]2O[C@H](CC(=O)NCc3ccccc3Cl)CC[C@@H]21	-5	-5	i	-0.2
23	O=C(C[C@@H]1C[C@@H]2c3cc(NC(=O)NC4CCCC4)ccc3O[C@@H]2[C@@H](CO)O1)NCCN1CCCCC1	4	17	i	-2.8
24	COc1cccc(NC(=O)N(C)C[C@@H]2OCc3cnnn3CCCC(=O)N([C@H](C)CO)C[C@H]2C)c1	1	-1	i	-0.7
25	COc1ccc(S(=O)(=O)Nc2cccc3c2O[C@@H](CN(C)C)[C@H](C)CN([C@H](C)CO)C3=O)cc1	5	-4	i	1.3
26	C[C@H](NC(=O)C[C@H]1C[C@@H]2c3cc(NC(=O)CN(C)C)ccc3O[C@@H]2[C@@H](CO)O1)c1ccccc1	1	17	i	-3.9
27	Cc1noc(C)c1S(=O)(=O)N(C)C[C@@H]1Oc2c(NS(=O)(=O)c3cn(C)cn3)cccc2C(=O)N([C@H](C)CO)C[C@@H]1C	2	7	i	-1.6
28	COc1ccc(S(=O)(=O)Nc2cccc3c2O[C@@H](CN(C)Cc2ccc(C(F)(F)F)cc2)[C@@H](C)CN([C@H](C)CO)C3=O)cc1	-6	-6	i	1.4
29	C[C@H](CO)N1C[C@H](C)[C@H](CN(C)S(=O)(=O)c2ccc(F)cc2)Oc2ncc(-c3cccc(C(F)(F)F)c3)cc2C1=O	-2	-1	i	6.2
30	C[C@@H]1CN([C@@H](C)CO)C(=O)c2cc(NS(=O)(=O)c3cccs3)ccc2O[C@@H](C)CCCCO[C@@H]1CN(C)C(=O)Nc1ccc2c(c1)OCO2	1	-6	i	-3.3
31	C[C@@H]1CN([C@H](C)CO)C(=O)Cc2cc(NC(=O)Cn3cnnn3)ccc2O[C@H]1CN(C)Cc1ccncc1	3	13	i	-1.4
32	C[C@H]1CN([C@@H](C)CO)C(=O)Cc2cc(NS(C)(=O)=O)ccc2O[C@@H]1CN(C)S(=O)(=O)c1ccccc1	2	6	i	2.8
33	C[C@@H]1CN([C@H](C)CO)C(=O)c2cccc(NC(=O)Nc3cccc4ccccc34)c2O[C@H]1CN(C)C(=O)Nc1ccc(C(F)(F)F)cc1	-5	-3	i	-1.1
34	CCCN1C[C@@H](C)[C@@H](OC)CN(C)C(=O)c2cc(NC(=O)c3ccccc3F)ccc2OC[C@H]1C	2	8	i	1.1
35	CCCC#Cc1ccc2c(c1)O[C@@H](CN(C)C)[C@@H](C)CN([C@@H](C)CO)S2(=O)=O	3	12	i	-0.1
36	COc1ccc(NC(=O)N2CC3(C2)CN(CC2CC2)[C@@H](CO)c2c3c3ccc(OC)cc3n2C)cc1	-2	0	i	0.3
37	CN1[C@H](C(=O)N2CCc3ccccc3C2)[C@@H](CO)[C@@H]2Cn3c(ccc(-c4ccccc4)c3=O)[C@@H]21	-5	-12	i	-0.7
38	COc1ccccc1-c1cn(CC[C@@H]2CC[C@@H](NC(=O)C3CCC3)[C@@H](CO)O2)nn1	1	3	i	1.9
39	C[C@@H]1CN([C@@H](C)CO)C(=O)c2cccc(NC(=O)Nc3ccccc3)c2O[C@H]1CN(C)CC1CC1	-1	0	i	0.7
40	C[C@@H]1CN([C@H](C)CO)C(=O)c2cccc(NS(=O)(=O)c3cn(C)cn3)c2O[C@H]1CN(C)Cc1ccc(C(=O)Nc2ccccc2N)cc1	1	5	i	0.4
41	C[C@@H]1CN([C@@H](C)CO)C(=O)c2cc(C#C[C@@H](C)O)cnc2O[C@H]1CN(C)C(=O)c1ccncc1	0	12	i	-2.0
42	C[C@H](c1ccccc1)N1C[C@@H](COCc2ccccc2)Oc2cccc(Oc3ccc(C(C)(C)C)cc3)c2S1(=O)=O	12	15	i	3.0
43	CCCNC(=O)N(C)C[C@@H]1Oc2cc(-c3cccnc3)ccc2S(=O)(=O)N([C@H](C)CO)C[C@@H]1C	2	7	i	-3.4
44	CNC[C@@H]1OCCCC[C@@H](C)Oc2ccc(NC(=O)Nc3cccc4ccccc34)cc2C(=O)N([C@@H](C)CO)C[C@H]1C	4	3	i	-1.8
45	COc1ccc(NC(=O)Nc2ccc3c(c2)C(=O)N([C@H](C)CO)C[C@H](C)[C@H](CN(C)C(=O)Nc2cccc4ccccc24)OCCCC[C@@H](C)O3)cc1	5	10	i	-1.4
46	Cc1noc(C)c1S(=O)(=O)Nc1ccc2c(c1)C(=O)N([C@@H](C)CO)C[C@@H](C)[C@H](CN(C)S(C)(=O)=O)O2	2	8	i	-1.2
47	CCNC(=O)C[C@@H]1CC[C@H]2[C@@H](COC[C@@H](O)CN2C(=O)Nc2ccc3c(c2)OCO3)O1	4	7	i	5.1
48	C[C@H]1CN([C@@H](C)CO)S(=O)(=O)c2ccc(-c3ccc(F)cc3)cc2O[C@@H]1CN(C)C(=O)C1CCOCC1	-10	-6	i	-3.0
49	COc1ccc(S(=O)(=O)N(C)C[C@@H]2Oc3c(cccc3N(C)C)C(=O)N([C@@H](C)CO)C[C@@H]2C)cc1	-4	-2	i	1.0
50	C[C@@H]1CN([C@H](C)CO)C(=O)c2cc(NC(=O)Nc3cccc4ccccc34)ccc2O[C@@H]1CN(C)Cc1ccccc1	-4	-9	i	8.8
51	O=C(C[C@H]1CC[C@H]2[C@@H](COC[C@@H](O)CN2Cc2cccc(Cl)c2)O1)N1CCCCC1	-7	5	i	3.7
52	CN1C(=O)c2cc(NC(=O)c3cscn3)ccc2OC[C@@H]2O[C@@H](CC(=O)NCC3CC3)CC[C@@H]21	2	4	i	-1.0
53	CC(=O)N(C)C[C@@H]1Oc2cc(-c3ccccc3C)ccc2S(=O)(=O)N([C@@H](C)CO)C[C@H]1C	0	0	i	-1.9
54	CNC[C@H]1OCc2ccccc2-c2ccccc2C(=O)N([C@@H](C)CO)C[C@@H]1C	1	3	i	0.8
55	CO[C@@H]1CN(C)C(=O)c2ccc(NC(=O)C3CCC3)cc2OC[C@@H](C)N(Cc2ccccn2)C[C@@H]1C	-2	-2	i	1.8
56	CCCNC(=O)N1C[C@H](C)[C@H](OC)CN(C)C(=O)c2cc(NC(=O)CCC)ccc2OC[C@H]1C	-2	-6	i	-0.5

Next entries:
item	SMILES	rRNA inh HTS	rRNA inh HTS OD600	FGF22 binding	rRNA inh HTS RFP
57	Cc1cccc(S(=O)(=O)N2CC[C@H]3[C@H](CO)Nc4ccc(C#Cc5cccnc5)cc4[C@H]32)c1	-7	-6	i	-2.4
58	C[C@H]1CN([C@@H](C)CO)C(=O)c2cc(NC(=O)C3CC3)ccc2O[C@H]1CN(C)C(=O)Nc1ccc2c(c1)OCO2	0	9	i	-2.3
59	Nc1nc2c(ncn2[C@@H]2O[C@H](C(=O)N[C@H](Cc3ccccc3)C(=O)O)[C@@H](O)[C@H]2O)c(=O)[nH]1	27	16	i	3.2
60	C[C@H]1CCCCO[C@H](CN(C)C(=O)C2CCCCC2)[C@@H](C)CN([C@@H](C)CO)C(=O)c2cc(NC(=O)c3ccccc3)ccc2O1	-2	-9	i	-1.6
61	CCN(C[C@H]1N[C@@H](CO)[C@@H]1c1ccc(-c2cccc(C#N)c2)cc1)C(=O)COC	0	7	i	0.2
62	O=C(CCN1CCCCC1)N[C@@H]1CC[C@@H](CC(=O)N2CCC(Cc3ccccc3)CC2)O[C@H]1CO	1	-1	i	-1.8
63	Cc1noc(C)c1S(=O)(=O)Nc1ccc2c(c1)CC(=O)N([C@@H](C)CO)C[C@@H](C)[C@@H](CN(C)Cc1ccc3c(c1)OCO3)O2	-6	-3	i	3.8
64	Cc1c(CN2CCN(c3ncc(Cc4ccccc4)cn3)CC2)c(=O)n(-c2ccccc2)n1C	-10	5	i	3.6

A draw from above in order of number of heavy atoms, low to high:
item	SMILES	rRNA inh HTS	rRNA inh HTS OD600	FGF22 binding	rRNA inh HTS RFP
54	CNC[C@H]1OCc2ccccc2-c2ccccc2C(=O)N([C@@H](C)CO)C[C@@H]1C	1	3	i	0.8
61	CCN(C[C@H]1N[C@@H](CO)[C@@H]1c1ccc(-c2cccc(C#N)c2)cc1)C(=O)COC	0	7	i	0.2
59	Nc1nc2c(ncn2[C@@H]2O[C@H](C(=O)N[C@H](Cc3ccccc3)C(=O)O)[C@@H](O)[C@H]2O)c(=O)[nH]1	27	16	i	3.2
57	Cc1cccc(S(=O)(=O)N2CC[C@H]3[C@H](CO)Nc4ccc(C#Cc5cccnc5)cc4[C@H]32)c1	-7	-6	i	-2.4
64	Cc1c(CN2CCN(c3ncc(Cc4ccccc4)cn3)CC2)c(=O)n(-c2ccccc2)n1C	-10	5	i	3.6
62	O=C(CCN1CCCCC1)N[C@@H]1CC[C@@H](CC(=O)N2CCC(Cc3ccccc3)CC2)O[C@H]1CO	1	-1	i	-1.8
58	C[C@H]1CN([C@@H](C)CO)C(=O)c2cc(NC(=O)C3CC3)ccc2O[C@H]1CN(C)C(=O)Nc1ccc2c(c1)OCO2	0	9	i	-2.3
63	Cc1noc(C)c1S(=O)(=O)Nc1ccc2c(c1)CC(=O)N([C@@H](C)CO)C[C@@H](C)[C@@H](CN(C)Cc1ccc3c(c1)OCO3)O2	-6	-3	i	3.8
60	C[C@H]1CCCCO[C@H](CN(C)C(=O)C2CCCCC2)[C@@H](C)CN([C@@H](C)CO)C(=O)c2cc(NC(=O)c3ccccc3)ccc2O1	-2	-9	i	-1.6
